# LASV entry inh: blocks Lassa virus binding to or entry into cells | Lassa virus pseudotype entry inhibition, cell reporter; control for the full effect not named in the record | AID 540256 | Potency, µM (highest dose often 37.9 µM), for inactives: at the highest dose activity change, negative = inhibition, hits mostly inhibitors | 300,000 tested, 1.2% active; active means well fitted inhibition curve with a large enough effect; inconclusive means small, poorly fitted or top-dose-only effect, or effect the other way; inactive means flat fitted curve, though single readings scatter; tested in HEK293 cells; also: % is scaled to controls: 0 for no effect and ±100 for the full control effect; nearly all actives have a fitted effect of over 50% in size; luciferase read-out
# NS1 function inh: blocks influenza NS1 protein function; S. cerevisiae slowed by influenza A NS1, growth recovery by OD600; Potency, µM (top dose mostly 46.1 µM), for inactives: at the highest dose activity, positive = more growth; 270,000 tested, 0.4% active; also: actives are rising curves; nearly all actives have a fitted effect of over 50% in size
#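 Growth recovery, yeast-based: influenza A NS1 expressed in S. cerevisiae causes slow growth, and suppressors are detected by OD600. The parent strain without NS1 is used as positive control.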
# StopGo reporter: lowers the luciferase signal of an FMDV 2A StopGo reporter. human cells with a luciferase reporter of 2A StopGo recoding; control for the full effect not named in the record. Potency, µM (series often up to 57.9 µM), inactives show top-dose signal change, negative = less light. 410,000 tested, 1.2% active. AID 1159524; active = well fitted falling curve with a large enough effect; inconclusive = small, poorly fitted or top-dose-only effect; inactive = no such curve, though single readings can be large or run the other way; tested in HEK293T cells; also: % is scaled to controls: 0 for no effect and ±100 for the full control effect; nearly all actives have a fitted effect of over 45% in size; luciferase light after 4 h
# Cruzain inh Det: blocks cruzain activity in presence of Triton detergent; purified cruzain, Z-FR-AMC fluorescence, 0.01% Triton; Potency, µM, for inactives: max response, negative = inhibition, hits mostly inhibitors; 200,000 tested, 0.43% active; active = well fitted curve in the direction sought with a large enough effect; inconclusive = small, poorly fitted or top-dose-only effect, or another doubt; inactive = no such curve, though single readings can be large; an effect the other way counts as inactive or inconclusive;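 also: plate controls were neutral wells for no effect and buffer without enzyme for full effect; nearly all actives have a fitted effect of over 40% in size; top concentration of the series not given in the record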
# Target sequence (P25779 123-467 limits assumed): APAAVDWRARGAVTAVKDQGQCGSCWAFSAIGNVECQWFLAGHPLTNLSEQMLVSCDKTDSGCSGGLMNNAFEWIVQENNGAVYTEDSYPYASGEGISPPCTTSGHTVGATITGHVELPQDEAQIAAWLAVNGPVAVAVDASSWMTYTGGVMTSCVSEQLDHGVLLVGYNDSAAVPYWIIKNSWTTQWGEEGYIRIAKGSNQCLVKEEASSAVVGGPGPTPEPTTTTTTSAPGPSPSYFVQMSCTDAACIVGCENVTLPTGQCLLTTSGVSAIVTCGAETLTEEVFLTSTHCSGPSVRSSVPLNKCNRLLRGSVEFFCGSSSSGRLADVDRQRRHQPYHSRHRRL
#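 Purified cruzain (1.5 nM final) was preincubated with compounds for 15 min at room temperature in 100 mM sodium acetate pH 5.5, 5 mM DTT, 0.01% Triton X-100. Reaction started with 2 uM Z-FR-AMC; AMC fluorescence change over 60 s gave activity.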
# Marburg entry inh: inhibitors of Marburg virus binding or cell entry | Marburg virus pseudotyped entry inhibition, cell reporter; control for the full effect not named in the record; about a third of the inactives were read at about 46 µM | Potency, µM (series often up to 37.8 µM), inactives show at the highest dose activity change, negative = inhibition, actives largely listed as inhibitors | 300,000 tested, 1.8% active; active = well fitted inhibition curve with a large enough effect; inconclusive = small, poorly fitted or top-dose-only effect, or effect the other way; inactive = flat fitted curve, though single readings scatter; tested in HEK293 cells; about a fifth of its hits are not listed in these tables; also: % is scaled to controls: 0 for no effect and ±100 for the full control effect; luciferase read-out
# SARS PLpro yeast: SARS-CoV PLP inhibition in yeast | S. cerevisiae expressing SARS-CoV PLpro, growth rescue; control for the full effect not named in the record | 330,000 tested, 0.19% active | Potency, µM (doses to about 32.9 µM), for inactives: top-dose activity, positive = growth rescue; also: 0% is about no effect; nearly all actives have a fitted effect of over 55% in size; growth read by luminescence after 48 h
# RE007 growth inh: less growth of the S. pombe RE007 Vpr strain; S. pombe RE007 Vpr strain, BacTiter-Glo ATP luminescence, 24 h; control for the full effect not named in the record; Potency, µM (titrated, usually from 92.2 µM), for the others: top-dose activity change, negative = less growth; 360,000 tested, 0.21% active; AID 651644; active = well fitted falling curve with a large enough effect; inconclusive = small, poorly fitted or top-dose-only effect; inactive = no such curve, though single readings can be large or run the other way;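 also: % is scaled to controls: 0 for no effect and ±100 for the full control effect; nearly all actives have a fitted effect of over 50% in size; the assay follows cell death caused by Vpr and the record does not say whether a fall means rescue or toxicity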
#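 Fission yeast strain RE007, carrying one chromosomally integrated HIV-1 vpr copy, was seeded at OD 0.01 in PMG+AL medium with 23 nL pinned compound. After 24 h at 30 °C and 99% humidity, viability was read by BacTiter-Glo luminescence.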
# Cruzain noTriton: cruzain (T. cruzi) inhibition without detergent; 200,000 tested, 2.3% active; Potency, µM, without a hit: max response, negative = inhibition, most hits filed as inhibitors; purified cruzain, Z-FR-AMC fluorescence, no detergent; P25779; active = well fitted curve in the direction sought with a large enough effect; inconclusive = small, poorly fitted or top-dose-only effect, or another doubt; inactive = no such curve, though single readings can be large; an effect the other way counts as inactive or inconclusive;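 also: plate controls were enzyme without inhibitor for no effect and buffer without enzyme for full effect; nearly all actives have a fitted effect of over 40% in size; top concentration of the series not given in the record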
#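 Detergent-free condition (0.00005% Triton X-100) in acetate buffer pH 5.5 with DTT. 1.5 nM enzyme and compound were pre-mixed 15 min, then 2 uM Z-FR-AMC substrate added; reaction progress from fluorescence change between first and third reads (60 s).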
# * = called active by the depositor; ? = inconclusive; · = not tested or not shown; & = joins results of further samples; [ ] = another dose, or the depositor's remark. Unless noted, calls follow the shape of the dose curve; as a rule, active means well fitted rising curve with a large enough effect; inconclusive means small, poorly fitted or top-dose-only effect; inactive means no such curve, though single readings can be large or run the other way. Potency is read from the fitted curve at half-maximal effect.
structure	LASV entry inh	NS1 function inh	StopGo reporter	Cruzain inh Det	Marburg entry inh	SARS PLpro yeast	RE007 growth inh	Cruzain noTriton
Cc1ccc(Cn2c(CCC(=O)O)nc3ncccc3c2=O)cc1	-1%	0%	2%	·	?	0%	-12%	·
O=C(O)Cn1cc(C=C2C(=O)NC(=O)NC2=O)c2ccccc21	·	8%	-20%	·	·	3%	-1%	·
O=C(CN1CCN(c2ccccc2F)CC1)Nc1ccccc1F	0%	-47%	-8%	1.0%	7%	4%	-3%	-1%
Cc1[nH]c2ccc3ncccc3c2c1C	?	33%	28%	-3.3%	11%	-6%	6%	-10%
Cc1ccc(NC(=S)N2CCCN(Cc3ccc(F)cc3)C2)c(C)c1	4%[46.1 µM]	·	-7%	·	?	1%	-22%	·
Cc1nn(-c2cc(C(F)(F)F)ccn2)c(=O)o1	·	6%	1%	·	·	1%	0%	·
NS(=O)(=O)c1ccc(CCNC(=O)C2CCN(c3ncnc4c3nc3n4CCCCC3)CC2)cc1	-2%[46.1 µM]	-8%	-11%&-19%	·	·	-2%	6%	·
O=C(Nc1cccc2cccc(NC(=O)c3ccco3)c12)c1ccco1	-3%	7%	·	-2.4%	-6%	6%	5%	25µM*
CC[C@@H]1[C@H]2CCCC(=O)N3CC[C@@H](C[C@@H]1OC(=O)NCc1ccccc1)[C@@H]23	·	11%	-11%	·	·	-6%	5%	·
O=C(CN1CCSCC1)N/N=C/c1ccccc1F	22%[14.3 µM]	-5%	30%	4.3%	4%	7%	-6%	2%
COC1CCCN(C(=O)c2ccc3nc(Cc4cccc(Cl)c4)oc3c2)C1 (stereo not given)	-12%	-8%	22%	·	0%[46.1 µM]	2%	8%	·
CCOc1ccc(C(=O)C2CCN(C(=O)c3ccc([N+](=O)[O-])cc3)CC2)cc1	·	-24%	?	·	·	-7%	6%	·
COCC(C)NCc1cccc(C)c1 (stereo not given)	-2%	11%	14%	2.6%	-7%[46.1 µM]	1%	-3%	-13%
O=S(=O)(Nc1nc2ccccc2s1)c1cc(F)ccc1F	22%	8%	31%[activator]	·	-4%	-1%	28%	·
Cc1ccc(Nc2cccccc2=O)cc1	-24%	-44%	33%[activator]	0.3%	-8%	2%	?	-9%
O=C(CSc1nnc(-c2ccccc2F)o1)OCc1ccccc1	-1%	-43%	-15%	-3.3%	-7%	-6%	·	4%
CN(c1ccc(OCC(=O)NC2CCCC2)cc1)S(=O)(=O)c1cccs1	?	-56%	-10%	5.2%	-17%	-2%	6%	1%
CN1CCc2c(sc3nc(SCC(N)=O)n(-c4ccc(Cl)cc4)c(=O)c23)C1	·	7%	-22%	·	·	0%	-10%	·
COc1ccc(CC(=O)Oc2ccc(C)cc2Br)cc1OC	·	-48%	?	·	·	-5%	5%	·
CCOC(=O)c1cccc(NC(=O)CSc2nc3cccnc3n2C)c1	?	-15%	18µM*	-0.1%	?	-4%	0%	0%
CSc1ccc(CCNC(=O)c2cc(C)nc3c2c(C)nn3-c2ccccc2)cc1	-7%[46.1 µM]	·	12%	-1.8%	·	·	·	1%
COc1ccc(CNC(=O)C2CC(c3cccc(OC)c3)=NO2)cc1 (stereo not given)	?	-31%	-17%	-2.8%	1%	2%	6%	7%
O=C(c1ccccc1Cl)N(Cc1ccc(Br)cc1)N1C(=O)CCCC1=O	·	-3%	16%	·	·	-2%	9%	·
COC(=O)C(=O)Nc1nnc(COc2ccccc2)s1	-4%	-12%	6%	2.0%	24%[46.1 µM]	1%	5%	-5%
COc1ccc(/C=N\NC(=O)c2cc(O)c(O)c(O)c2)cc1CN1CCN(c2ccc(F)cc2)CC1	1%	?	-14%	-9.7%	-9%	13µM*	17%	12%
O=C(Nc1ccccc1-c1nnn(CC(=O)N2CCN(c3ccccc3)CC2)n1)c1cccs1	?	-18%	·	9.4%	?	-3%	-24%	?
Cc1nn(C(=O)c2cccc([N+](=O)[O-])c2)c(C)c1Cl	6%[46.1 µM]	-7%	-20%	·	5%[46.1 µM]	1%	-7%	·
Cc1nc2ccc(S(=O)(=O)CCC(=O)Nc3ccc(C)c(C)c3)cc2s1	5%[46.1 µM]	·	1%	1.7%	·	·	·	-3%
O=C(CSc1n[nH]c(-c2cccs2)n1)NCc1ccc2c(c1)OCO2	-6%	9%	1%	2.0%	-19%	-4%	-8%	-7%
COc1cc2c(=O)c(S(=O)(=O)c3ccc(C)cc3)cn(Cc3cccc(C)c3)c2cc1OC	?	·	0%	-2.9%	?	·	·	?
O=C(CNCC1CCCO1)N1CCCc2ccccc21 (stereo not given)	1%	0%	5%	7.3%	11%	-10%	2%	-1%
CCCN1C(=O)C(O)(C2CC(=O)CC(C)(C)O2)c2ccccc21 (stereo not given)	-2%	-4%	-22%	4.1%	-15%[46.1 µM]	-2%	5%	4%
COC(=O)c1ccc(NC(=O)CSc2nc(C)cc(=O)[nH]2)cc1	-8%	7%	8%	2.8%	4%	2%	10%	-9%
CN(c1nc2nonc2nc1NC1CC1)C1CCOC1 (stereo not given)	-2%[46.1 µM]	-3%	22%	·	4%	-2%	-7%	·
Cc1cc(C(=O)NC(Cc2c[nH]c3ccccc23)C(=O)O)c(C)o1 (stereo not given)	20%	20%	2%	·	0%	-10%	7%	·
O=C(O)CN1C(=O)C2C3C=CC(C3)C2C1=O (stereo not given)	·	-10%	-13%	3.0%	·	-5%	-3%	-1%
CN(C)S(=O)(=O)n1cc(/C=C(\NC(=O)c2ccccc2Cl)C(=O)N2CCCC2)c2ccccc21	·	-7%	3%	·	·	29%	-6%	·
CCOC(=O)C1=C(N)N2C(=O)C(C)SC2=C(C(=O)OCC)C1c1cc(OC)c(OC)c(OC)c1 (stereo not given)	·	-1%	-13%	·	·	-5%	-2%	·
COc1ccccc1OCCNC(=O)/C=C/c1ccc([N+](=O)[O-])cc1	-16%	-27%	-5%	-6.5%	10%	-41%	-8%	-17%
Cc1ccc2oc(C(=O)Nc3nnc(CC(C)C)s3)c(C)c2c1	·	12%	15%	·	·	6%	7%	·
CCN(CC(O)Cn1c2ccccc2c2ccccc21)S(=O)(=O)c1ccc(C)cc1 (stereo not given)	?	?	-8%	3.6%	?	-20%	-4%	8%
Cc1ccc(S(=O)(=O)CC(=O)Nc2cccc(C)n2)cc1	12%[46.1 µM]	6%	14%	·	?	-2%	-7%	·
COC(=O)C(=O)/C=C(\O)c1ccc(C)cc1	25%	3%	51%[activator]	-3.8%	7%	7%	-15%	0%
Cc1ccc(CN2CC(C(=O)Nc3cccc(S(=O)(=O)N4CCCCC4)c3)CC2=O)cc1 (stereo not given)	-21%	-7%	-28%	-5.1%	?	2%	·	?
Cc1c(C(=O)NCCNc2ncc(C(F)(F)F)cc2Cl)cccc1[N+](=O)[O-]	?	-3%	-14%	·	-29%	1%	-10%	·
Cc1ccc2oc(=O)c3cnn(CC(=O)NCc4ccccc4Cl)c3c2c1	1%[46.1 µM]	·	-3%	-0.4%	14%[46.1 µM]	·	·	-15%
O=C(NCC(c1ccc(F)cc1)N1CCOCC1)c1cccnc1Sc1ccccc1Cl (stereo not given)	6%	·	-16%	·	?	-1%	5%	·
COc1nc(NCCN2CCOCC2)nc(Nc2ccccc2)n1	4%	-5%	45%[activator]	-7.6%	?	4%	-1%	-1%
Cc1ccc(S(C)(=O)=O)cc1C(=O)NC(C)C1CC2CCC1C2 (stereo not given)	8%	5%	-6%	·	2%	2%	-18%	·
CN(C(=O)c1ccco1)c1ccccc1C(=O)O	·	20%	3%	·	·	-1%	6%	·

# Further entries follow.
structure	LASV entry inh	NS1 function inh	StopGo reporter	Cruzain inh Det	Marburg entry inh	SARS PLpro yeast	RE007 growth inh	Cruzain noTriton
CC(C)C(c1nnnn1C(C)(C)C)N1CCC(Cc2ccccc2)CC1 (stereo not given)	?	?	?	-2.6%	?	-80%	15%	-10%
O=C(CNC(=O)c1ccccc1F)OCc1csc(-c2ccccc2)n1	6%	-32%	30%	·	?	-6%	-1%	·
Cc1cc(C)c2sc(C)[n+](CCCS(=O)(=O)[O-])c2c1	-1%[46.1 µM]	7%	-6%	·	?	0%	4%	·
Cc1cc(=O)n2[nH]c(N)c(N=Nc3ccccc3)c2n1	1%	10%	15%	-6.0%	-22%	0%	-7%	-5%
CN1CCN(C(=O)CCC(=O)O)CC1	·	-3%	40%	·	·	0%	4%	·
O=C(COC(=O)COc1ccccc1[N+](=O)[O-])Nc1cccc(Br)c1	28%	-28%	21%	-7.9%	17%	-26%	-1%	-1%
O=C1NC(=S)CN1c1ccccc1	·	4%	-25%	·	·	0%	4%	·
Cc1c(C(=O)O)sc(S(=O)(=O)N2CCN(C(=O)Cc3ccc(F)cc3)CC2)c1C(=O)O	11%	·	-16%	·	?	-7%	-7%	·
CCC(C)N1CCN(S(=O)(=O)c2ccc(NC(C)=O)cc2)CC1 (stereo not given)	·	1%	4%	·	·	1%	6%	·
Cc1nc(C)c(C(=O)C2=C(O)C(=O)N(CCCn3ccnc3)C2c2ccccc2)s1 (stereo not given)	4%	-2%	2%	5.4%	8%	5%	1%	3%
CSc1nc2sc3c(c2c(=O)n1-c1ccc(F)c(Cl)c1)CCN(C(C)=O)C3	10%[46.1 µM]	·	-11%	-1.4%	-2%[46.1 µM]	·	·	5%
O=c1[nH]cc(S(=O)(=O)N2CCN(c3cccc(Cl)c3)CC2)c(=O)[nH]1	14%	·	-12%	·	·	0%	3%	·
Cn1cnc(S(=O)(=O)NCc2ccc(Br)cc2)c1	·	-2%	-4%	·	·	4%	-4%	·
CC(=O)Oc1ccc2oc(C)c(C(=O)N3CCOCC3)c2c1	2%	-19%	·	0.9%	-1%	20%	-2%	1%

# Screens: PubChem BioAssay, National Center for Advancing Translational Sciences (NCATS)
